Screening data from PubChem.
NPYLR7 ag: agonists of mosquito NPYLR7 receptor, primary screen, cell-based, Aedes aegypti, calcium fluorescence, mosquito biting behavior; Aedes aegypti neuropeptide Y-like receptor 7 (NPYLR7); HEK293T NPYLR7/Galpha15, GCaMP6s calcium fluorescence; activation, % at 10 µM; 270,000 compounds, 0.15% hits; AID 1259423, 2018; in the data active means activation above about 40%;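 further: 0% = vehicle and 100% = reference agonist at the receptor; some compounds past the cut are filed as inactive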
NPYLR7 ag max-min: also measured in NPYLR7 ag; calls as there; activation, %; measured here: Max-Min RFU normalised activation; some inactives read as strong as hits;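 span of the calcium signal over five minutes; 0% = vehicle and 100% = native peptide agonist; compound fluorescence can raise it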
* = called active by the depositor; i = inactive; & = joins results of further samples. This is a subset; count on the stated rates, not on these rows.

smiles	NPYLR7 ag	NPYLR7 ag max-min
CCN1C(=S)NC(c2ccc(NC(=O)Nc3ccc(SC)cc3)cc2)C(C(=O)OCC(C)C)=C1C (stereo not drawn)	-6	-5
CC(C)CNC(=O)c1cc(N)ccc1N1CCCC1	14	12
CNC(=O)[C@@H]1C[C@H](N)CN1C(=O)c1ccccc1C(=O)c1ccc(C)cc1	0	-4
Cn1nnc2c(N3CCN(C(=O)CCC4CCCC4)CC3)ncnc21	0	14
Cc1ccccc1C1(O)CCNCC1	-8	-10
NC(=O)c1ccc(-c2nc(-c3ccc4c(c3)OCCO4)c(-c3ccccn3)[nH]2)cc1	6	-5
CCNC(=O)Cn1c(=O)/c(=C/c2ccccn2)s/c1=C\C(=O)C(C)(C)C	13	6
COc1ccc(Cl)c2sc(N(CCN3CCOCC3)C(=O)c3cc(C)n(C)n3)nc12	1	0
Cc1ccc(NC(=O)N2CCN(C(C(=O)N(C)Cc3ccccc3)C3CCCC3)CC2)cc1 (stereo not drawn)	4	9
CCc1noc(C)c1C(=O)NCc1ccc(N(C)C)cc1	0	-1
CCc1nc(-c2c(-c3ccccc3)ncn2CCc2c(C)n[nH]c2C)c(C)[nH]1	18	13
c1ccc(CCN2CCCC(Cn3ccnc3)C2)cc1 (stereo not drawn)	17	-1

Further compounds follow:
smiles	NPYLR7 ag	NPYLR7 ag max-min
CN(CCn1ccc2ccccc21)Cc1cnc(N)nc1	6	4
O=C1C(NS(=O)(=O)c2cccs2)=C([n+]2ccccc2)C(=O)c2ccccc21	0	6
Cc1cnccc1CN(C)C(=O)[C@@H](N)Cc1c[nH]c2ccccc12	-6	-7
COc1ccc(-c2ncc(C)c(N)n2)c(C)c1	4	-2
CCCCn1ncc(C)c1NC(=O)c1cccnc1SC	2	-1
CC(C)c1noc(CNC(C)(CNC(=O)OC(C)(C)C)C(C)C)n1 (stereo not drawn)	-4	-8
CCOC(=O)C(C)Sc1ccc2nnc(-c3cccnc3)n2n1 (stereo not drawn)	-6	-6
Cc1cccc(=O)n1CCC(=O)NC1CCC(n2cnnc2)CC1 (stereo not drawn)	0	-1
N#CCCCCN1Cc2ccccc2-c2ccccc2C1	3	0
Cc1ccc(CCC(=O)N2CCCC(O)C2)c(C)c1 (stereo not drawn)	1&2	0&-1
CC1(C)CC2CC(C)(CN2C(=O)COC(=O)C23CC4CC(CC(Br)(C4)C2)C3)C1 (stereo not drawn)	3	1
CCOC(=O)[C@@H]1CN(C(=O)Cc2cccs2)[C@H]2c3cccc(C)c3O[C@@H]12	-2	8

(next part)
smiles	NPYLR7 ag	NPYLR7 ag max-min
COc1cccc(CN(C(=O)c2cccc(Br)c2)C2CC2)c1OCc1nc(CO)cs1	1	7
CCOc1ccc(NC(=O)c2csc(COC(=O)c3ccccc3)n2)cc1	-4	-10
O=C(COCc1ccccc1)Nc1cccc(-c2cccc(-c3ccc4c(c3)OCCO4)n2)c1	15	24
CCC(CNC(=O)c1nn(-c2ccccc2)c(C)cc1=O)c1ccccc1 (stereo not drawn)	-4	-7
COc1c(O)cc2oc3cc(O)c(CC=C(C)C)c(O)c3c(=O)c2c1CC=C(C)C	-6&-7	-12&-12
COCCN(CC(=O)Nc1nc(CC(=O)NCc2ccc(F)cc2)cs1)C(=O)c1ccco1	15	21
CCOc1ccc2nc(NC(=O)CC)sc2c1	-5	-12
COc1nc(OC)nc(-c2cc(C)ccc2OC)n1	-4	-6
CNC(=O)COc1ccc(-c2c(C)cccc2C)cc1	-2	-2
O=C(NCc1ccc(F)cc1)c1coc(CN(CCc2c[nH]c3ccccc23)Cc2cccc(C(F)(F)F)c2)n1	10	11
CC(C)CC(=O)Nc1cccc([N+](=O)[O-])c1	7	-1
O=C(Nc1ccc(F)cc1F)N1CCC(Cc2ccc(-n3cccc3)cc2)CC1	3	6

Next part
smiles	NPYLR7 ag	NPYLR7 ag max-min
C=CCn1c(-c2ccc(Cl)s2)csc1=Nc1ccccc1	-2	-1
Cc1cccc(CC(C)NC(=O)c2coc(COc3ccc4c(c3)OCO4)n2)n1 (stereo not drawn)	-1	-6
COc1cc(-c2nc(S(=O)(=O)c3ccccc3)c(N3CCOCC3)o2)cc(OC)c1OC	-6	-7
Cc1ccccc1-n1cnnc1SCc1nc2ccccc2c(=O)[nH]1	3	0
CN(C)CCNCC1(c2ccnc(-c3ccc(S(C)(=O)=O)cc3)c2)CC1	-13	-15
CCn1cc(CN(C(=O)c2cn3c4c(cccc4c2=O)CC3)C(C)C)cn1	5	5
CCCNc1ccc(C)cc1C(=O)N1CCCC(C(=O)OCC)C1 (stereo not drawn)	-5	-9
O[N+]1=CC=CCC1=S.On1ccccc1=S.[Zn]	-2&3	-4&-2
O=c1/c(=C\c2ccc(Cl)c(Cl)c2)sc2nc(-c3cccnc3)nn12	12	15
CCc1nc2ccc(C(=O)N(C)Cc3ccccc3)cn2c1N(C)Cc1ccc(OC)cc1	-5	-8
COC(=O)c1cc(C=C2N=C(c3ccc(F)cc3)OC2=O)oc1C	6	6
O=C(O)c1occc1-c1ccc(F)cc1	2	i

3 compounds from above, sorted by length of the SMILES, lowest first:
smiles	NPYLR7 ag	NPYLR7 ag max-min
CCn1cc(CN(C(=O)c2cn3c4c(cccc4c2=O)CC3)C(C)C)cn1	5	5
CCc1nc2ccc(C(=O)N(C)Cc3ccccc3)cn2c1N(C)Cc1ccc(OC)cc1	-5	-8
COc1cc(-c2nc(S(=O)(=O)c3ccccc3)c(N3CCOCC3)o2)cc(OC)c1OC	-6	-7

Remaining list, next part.
smiles	NPYLR7 ag	NPYLR7 ag max-min
O=C(Cn1ncc2ccccc2c1=O)Nc1ccccc1OC(F)F	1	6
CCS(=O)(=O)Nc1cc(Br)ccc1OC	1	1
Cc1nc(CCNC(=O)C2CC(C(C)C)=NO2)sc1C (stereo not drawn)	0	-1
C=CCOC1C[C@](OCc2cccc(C(F)(F)F)c2)(C(=O)NC(C)C)C[C@@H](O)[C@H]1O (stereo partly drawn)	3	2
Cc1ccc(C2CCCCCN2C(=O)CCc2nc(C3CC3)no2)o1 (stereo not drawn)	-1	-2
CCC(C)N(Cc1csc(COc2c(OC)cccc2OC)n1)C(=O)C1CC1 (stereo not drawn)	5	14
O=S(=O)(Nc1nc2ccccc2nc1N1CCN(c2ccccn2)CC1)c1ccc(Cl)cc1	2	3
O=c1nc(SCc2ccccc2)c2c(n1Cc1ccncc1)CCC2	1	-2
COc1ccc(CCOc2nc(-c3ccccc3F)n(-c3ccc(NC(=O)Nc4ccccc4C)cc3)n2)cc1	4	6
O=c1c(N=Nc2ccc(Cl)cc2Cl)c(-c2ccccc2)[nH]n1-c1nc(-c2ccccc2)cs1	12	13
COc1cccc(C(=O)NCC2CCCN(C(=O)c3cc(C(C)C)[nH]n3)C2)c1OC (stereo not drawn)	5	3
O=C(CCSc1ccc(C(F)(F)F)cn1)Nc1c(Cl)cccc1Cl	9	5

More structures.
smiles	NPYLR7 ag	NPYLR7 ag max-min
Cc1ccc(N=Cc2ccccc2C)c(O)c1	-7	-17
Cc1cc2cc(CNC(=O)NC3CC(=O)N(c4ccccc4)C3)ccc2[nH]1 (stereo not drawn)	4	5
CCC(=O)C1=C(c2ccc(C)c(C)c2)N(C(=O)CC)n2cnnc2S1	10	5
CC(=O)NC(C)C(=O)Nc1nc(C2CC2)cs1 (stereo not drawn)	18	14
Cc1ccc(C(=O)Nc2c(C)nc3ccccn3c2=O)cc1	3	1
Cc1cccc(COC2CCCN(C(=O)c3cccc(F)c3)C2)c1 (stereo not drawn)	-10	-4
CC(C)c1nn(-c2ccc(Cl)cc2)c(C(C)C)c1C(=O)NC1CC1	23	34
COc1ccc(S(=O)(=O)N(Cc2csc(COc3ccccc3OC)n2)C2CC2)cc1	-7	-7
CC(NC(=O)C1CC(=O)N(c2ccc3c(c2)CCC3)C1)c1cccnc1 (stereo not drawn)	-5	-7
CCOC(=O)C1=C(C)NC(C)=C(C(=O)OCC)C1c1ccc(Cl)cc1	9	8
COC(=O)c1cc(NC(=O)CSc2nc(C)nc3sc4c(c23)CCCC4)cc(C(=O)OC)c1	-7	-9
CCCNc1nnc(SCc2ccc(C#N)cc2F)s1	4	0

Retrieved by compound from the list above (four):
smiles	NPYLR7 ag	NPYLR7 ag max-min
Cc1cc2cc(CNC(=O)NC3CC(=O)N(c4ccccc4)C3)ccc2[nH]1 (stereo not drawn)	4	5
CC(C)c1nn(-c2ccc(Cl)cc2)c(C(C)C)c1C(=O)NC1CC1	23	34
CCCNc1nnc(SCc2ccc(C#N)cc2F)s1	4	0
CCC(=O)C1=C(c2ccc(C)c(C)c2)N(C(=O)CC)n2cnnc2S1	10	5

Remaining list, next part.
smiles	NPYLR7 ag	NPYLR7 ag max-min
Cc1ccccc1-c1nc(CN2CCOc3ccc(Cl)cc3C2)c(C)o1	-7	-11
O=c1cc(-c2ccc(O)cc2)oc2c(C3O[C@H](CO)[C@@H](O)[C@H](O)[C@H]3O)c(O)cc(O)c12 (stereo partly drawn)	-1	-9
CN1CCN(S(=O)(=O)c2cc(Br)cc(C(=O)O)c2)CC1	3	1
Cc1nc2n(n1)C(=O)C(C(c1ccccc1)N1CCC(C(N)=O)CC1)S2 (stereo not drawn)	1	-2
O=S(=O)(c1ccc(Cl)s1)N1CCCCC1c1nc2ccccc2s1 (stereo not drawn)	7	3
Cn1c(=O)n(Cc2ccc(F)cc2)c(=O)c2c1nc1n2CCCN1c1ccc(F)cc1	0	35
O=C(c1cccc(F)c1)N1CCC(CN2C(=O)CSC2c2ccc(C(F)(F)F)cc2)CC1 (stereo not drawn)	3	10
COc1cc(NC(=O)CSc2nc(=O)n(CCO)c3c2CCCC3)cc(OC)c1	-1	-6
c1ccc(N2CCn3c(SCc4cccnc4)nnc32)cc1	11	11
O=[N+]([O-])c1ccc2[nH]c(O)c(N=NC3CS(=O)(=O)CC3O)c2c1 (stereo not drawn)	-3	-6
CSCc1ccc(C(=O)Nc2cccc(C(C)=O)c2)o1	6	1
CCN1CCN(c2ccc(NC(=O)c3ccc(OC)cc3F)c(C)c2)CC1	4	3

Later entries.
smiles	NPYLR7 ag	NPYLR7 ag max-min
CSc1nc(C2CC2)cc(-c2ccc(F)cc2)c1C#N	9	5
O=C(Nc1ccc(OC(F)F)c2ncccc12)N1CCCSCC1	3	-1
CC(C)c1ccc(NC(=O)c2nnn(Cc3ccccc3)c2N)cc1	-2	4
CC(=O)NC1(c2noc(CCC(=O)NC(C)(C)C)n2)CCCCCC1	0	0
COc1ccc(S(=O)(=O)NCc2ccccn2)cc1C(C)(C)C	4	0
CC1(C)CC(=O)C=C(C(=O)N2CCC3(CC2)CCN(Cc2ccccc2)C3=O)O1	6	8
Cc1nc(CN2CCCC3(C2)CN(C)C(=O)O3)sc1C (stereo not drawn)	3	14
O=C(Cc1csc(N2CCCNC2=O)n1)Nc1ccccc1OC(F)F	-7	-7
Cc1nn(-c2ccccn2)c(N)c1C#N	9	11
CCOC(=O)C1CCCN(C(=O)CSc2nc(Cl)cc(N3CCN(C(=O)c4ccc(OC)cc4)C(C)C3)n2)C1 (stereo not drawn)	-4	-13
Cc1cc(CNC(=O)CCn2cnnn2)c2[nH]c(-c3ccccc3)c(C)c2c1	9	4
CCn1nccc1C(=O)N(C)Cc1ccc(OC)c2ncccc12	-6	-10

(next part)
smiles	NPYLR7 ag	NPYLR7 ag max-min
N#CC[C@H](C1CCCC1)n1cc(-c2ncnc3[nH]ccc23)cn1	-8	-12
CSc1ccc(C(=O)C2CCCN(Cc3cnn(-c4ccccc4)c3)C2)cc1 (stereo not drawn)	5	-1
COC(=O)c1ccc(Cn2cc(Br)cn2)o1	1	0
O=C(CC1CC2CCC1C2)OCCc1cn[nH]c1 (stereo not drawn)	0	-4
COc1ccc(COc2ccc(C#N)cc2OC)cc1F	10	11
COc1cc(C(=O)NCCc2ccc(Cl)cc2)ccc1OC1CCN(C(C)=O)CC1	13	4
CCCc1nc2c(C)cccn2c1NC(C)(C)CC(C)(C)C	7	20
CC(C)C(=O)NCCc1nc2ccccc2n1Cc1ccccc1F	6	10
CCN(CC)S(=O)(=O)c1ccc(C(=O)Oc2cc(C)[nH]c(=O)c2[N+](=O)[O-])cc1	-1	-3
CC1(C)CC(=O)CC(=NNC(=S)NC2CCCCC2)C1	12	6
O=c1cc(COc2cc(Cl)c(Cl)cc2Cl)nc2ccc(Br)cn12	3	8
Cc1nc2ncnn2c(C)c1CCC(=O)NCCN1Cc2ccccc2OC(c2ccsc2)C1 (stereo not drawn)	16	5

(list continues)
smiles	NPYLR7 ag	NPYLR7 ag max-min
O=C(NCc1cnn(Cc2ccccc2)c1)c1cn(CC2CCCO2)nn1 (stereo not drawn)	-3	-9
O=C(c1ccccc1)C(Sc1nc2ccccc2[nH]1)c1ccccc1 (stereo not drawn)	-22	-23
CNC(=O)C1Cc2ccccc2N1C(=O)c1cc(=O)c2ccccc2o1 (stereo not drawn)	-5	-5
O=C(NCCC1CCN(C2CCCC2)CC1)C1CCOC1 (stereo not drawn)	-6	-15
O=C(CCN(c1nc(-c2ccco2)nc2ccccc12)C1CC1)NC1CC1	-3	9
CC(C)[C@H]1CC[C@H](C)C[C@@H]1OCC(=O)N1CCC(c2ccccc2)CC1	-3	-9
COCC(=O)N1CCC(Oc2ccc(C(=O)NCc3cccc(F)c3F)cc2)CC1	3	-1
Cc1cc(N2CCCN(Cc3cccc(OCC(N)=O)c3)CC2)ccn1	-8	-14
O=C1OCCN1CCCNC1(c2ccc(F)cc2)CCC1	13	10
COCCN(CCOC)C(=S)Nc1cccc(C)c1	2	2
Cc1cccc(N=Nc2c(O)[nH]c3c(C)cc(Cl)cc23)c1	-4	-6
CCCC1CCCN(C(=O)c2cc3c(C)nn(C)c3s2)CC1 (stereo not drawn)	1	-4
O=C(Nc1ccc(Oc2cccnc2)cc1)C1CCN(CCCn2cccn2)CC1	0	-2
